Source: PubChem BioAssay (PCMD)
Biofilm kill mix: mixture kills Candida albicans biofilm cells | C. albicans biofilm persisters + clotrimazole, fluorescence viability; primary screen in compound mixtures of four per well | inhibition, % at 7.6 µM | hit rate 0.02% among 120,000 | AID 1242;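 active = inhibition above 30.3% in the primary screen of four-compound pools, then above 30% when the compound was retested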;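 also: compounds exposed to preformed 24 h biofilms for 48 h; the number belongs to the whole pool; some results filed as inactive read as strong as hits; inactives centre near 12; 0% = biofilm with clotrimazole alone and 100% = kill control; retested singly at about 60 µM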
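Test system: C. albicans CAF4-2 wild-type biofilms; buffer or medium: RPMI/MOPS medium, pH 7.0; schedule: 24 h biofilm formation, then 48 h compound exposure, 37 °C; detection: Alamar Blue fluorescence; measure: percent inhibition of biofilm viability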
An asterisk follows results filed as active. Only part of the results is shown; count on the stated rates, not on these rows.

SMILES	Biofilm kill mix
COCCn1c(C)cc(C(=O)CSc2nc3ccccc3c(=O)n2C(C)COC)c1C (stereo not drawn)	8
Cc1cccc(Oc2cc([N+](=O)[O-])cc3c2C(=O)Nc2ccccc2O3)c1	12
COc1ccc(OC)c(C2=NOC(C(=O)NCc3cccs3)C2)c1 (stereo not drawn)	12
Cc1ccc(NC(=O)CN2CCN(CCN=CC3=C(O)CC(c4ccc(C)cc4)CC3=O)CC2)cc1 (stereo not drawn)	13
COc1ccccc1C(=O)n1nc(-c2cccnc2)nc1NCc1ccccc1	12
CC(=O)Nc1ccc(N(C(=O)CNC(=O)c2ccco2)C(C(=O)NCc2ccco2)c2ccccc2)cc1 (stereo not drawn)	9
COc1cc(OC)cc(C(=O)Nc2nnc(-c3cccnc3)o2)c1	19
Cc1sc2nc(COC(=O)C(NC(=O)c3ccc(Cl)cc3Cl)C(C)C)[nH]c(=O)c2c1C (stereo not drawn)	10
Cc1nc(C(=O)NNC(=O)Nc2ccc(Cl)cc2)cs1	9
NC(=O)c1ccc(N2CCN(c3ccccc3O)CC2)c([N+](=O)[O-])c1	20
N#Cc1ccc(CSc2nnc3[nH]c(=O)cc(N)n23)cc1	21
c1ccc(-c2csc(Nc3ncccn3)n2)cc1	1
COC(=O)C1CCN(CC(=O)Nc2cc(Cl)ccc2OC)CC1	8
COC(=O)CNC(c1ccccc1)c1cc(Cl)ccc1NC(=O)c1cccc(Cl)c1 (stereo not drawn)	13
Cc1nnc2sc(SCc3ccccc3)nn2c1=O	-4
CCNC(=S)N1CCN(C(=O)C(Cc2ccccc2)NC(C)=O)CC1 (stereo not drawn)	12
CCn1cc(NC(=O)Nc2ccc(OC)c(OC)c2)c(C(N)=O)n1	15
COc1ccc(-c2[nH]ncc2CNC(C)CCn2cccn2)cc1F (stereo not drawn)	24
CCS(=O)(=O)n1nc(-c2cccnc2)nc1NCc1ccc(F)cc1	12
Nc1nnc(CC(=O)N/N=C/c2ccc(-c3cccc(C(=O)O)c3)o2)s1	18
Cc1ccc(NC(=O)c2c([N+](=O)[O-])c(C(C)(C)C)nn2C)c(C)c1	20
Cc1cc(CNC(=O)CC2C(=O)NCCN2CC(C)(C)C)nn1C (stereo not drawn)	12
O=Cc1c(OCc2ccccc2)ccc2ccccc12	12
COc1ccc2cc3[n+](cc2c1OC)CCc1cc2c(cc1-3)OCO2	6
Cn1c(Oc2ccc(F)cc2)c(C=O)c2ccccc21	13
O=C(Nc1ccc(S(=O)(=O)N2CCCCC2c2cccnc2)cc1)c1c(F)cccc1F (stereo not drawn)	9
CCCCN(C)C(=S)Nc1ccc(Oc2ccccc2)cc1	2
O=C(Nc1ccc(Cl)cc1)Nc1nnc(CSCc2ccccc2)s1	14
O=C(N/N=C/c1ccc(N2CCOCC2)o1)c1cccc([N+](=O)[O-])c1	12
O=C(CNC(=S)N(CCCN1CCOCC1)Cc1cccs1)N1CCCC1	-1

Reformatted: four of the compounds above.
COC(=O)C1CCN(CC(=O)Nc2cc(Cl)ccc2OC)CC1
- Biofilm kill mix = 8
Cc1ccc(NC(=O)CN2CCN(CCN=CC3=C(O)CC(c4ccc(C)cc4)CC3=O)CC2)cc1 (stereo not drawn)
- Biofilm kill mix = 13
CCNC(=S)N1CCN(C(=O)C(Cc2ccccc2)NC(C)=O)CC1 (stereo not drawn)
- Biofilm kill mix = 12
COc1ccccc1C(=O)n1nc(-c2cccnc2)nc1NCc1ccccc1
- Biofilm kill mix = 12

Later entries:
SMILES	Biofilm kill mix
O=c1sc2ccccc2c(N2CCCC2)c1[N+](=O)[O-]	14
Cc1ccc(S(=O)(=O)CCSc2n[nH]c(=O)n2-c2ccc3c(c2)OCCO3)cc1	19
Cc1ccc(/C=N/N2CCN(c3ccccc3)CC2)cc1	6
CCOC(=O)c1c(Nc2ccccc2OCCOC)n[nH]c1C	20
O=C(NCCCn1ccnc1)C(=O)NCC1OCCN1S(=O)(=O)c1ccc(F)cc1 (stereo not drawn)	8
CC1(C)CC(=NOC(=O)c2ccccc2)CC(C)(C)N1O	13
COc1ccc(C2(CNS(=O)(=O)c3ccc(C)cc3)CCOCC2)cc1	19
C/C(=N\NC(=O)CCCNc1ccc(C)cc1)c1ccccn1	18
O=[N+]([O-])c1ccc(OCCOCCOc2ccc([N+](=O)[O-])cc2)cc1	5
O=S(=O)(NC1CCCCC1Sc1ncccn1)c1ccccc1 (stereo not drawn)	10
O=S(=O)(NCc1ccco1)c1cnc(Cl)c(Cl)c1	8
Cc1ccc(Nc2nc(-c3cccs3)cs2)nc1	10
COc1cc(C(=S)N2CCOCC2)ccc1OC(=O)c1cc([N+](=O)[O-])cc([N+](=O)[O-])c1	10
Cc1ccc(N=Nc2c(O)ccc3n[nH]nc23)cc1	29
O=C1CCc2ccccc2N1	19
C/C(=N\Nc1nc(N2CCCCC2)nc(N2CCOCC2)n1)c1ccccc1O	17
O=C(O)C(NS(=O)(=O)c1cccc2nsnc12)c1ccccc1 (stereo not drawn)	22
O=C(NCc1csc2ccc(Cl)cc12)Nc1cccc2ccccc12	23
COc1cccc(N2CC(C(=O)Nc3nnc(SCC(=O)Nc4cc(C)on4)s3)CC2=O)c1 (stereo not drawn)	7
CC1(C)Cc2ccccc2C(N/N=C/c2ccc([N+](=O)[O-])cc2)=N1	5

Some of the entries so far, as a markdown table:
| structure | Biofilm kill mix |
| --- | --- |
| COc1ccc(OC)c(C2=NOC(C(=O)NCc3cccs3)C2)c1 (stereo not drawn) | 12 |
| Cc1ccc(NC(=O)CN2CCN(CCN=CC3=C(O)CC(c4ccc(C)cc4)CC3=O)CC2)cc1 (stereo not drawn) | 13 |

Other entries
SMILES	Biofilm kill mix
Cc1cc(C(=O)CSc2nncn2C)c(C)n1-c1ccccc1	11
COc1ccc(NS(=O)(=O)c2cccc(NC(=O)c3ccccn3)c2)cc1	19
O=C(Nc1ccc(N2CCN(C(=O)c3ccco3)CC2)cc1)c1cccnc1Cl	9
CC(NC(=O)c1ccc(N2CCNCC2)c([N+](=O)[O-])c1)C12CC3CC(CC(C3)C1)C2 (stereo not drawn)	34
COc1ccc(C2c3c(ncn(CCCO)c3=N)Oc3ccc4ccccc4c32)cc1OC (stereo not drawn)	9
CCOC(=O)C1CCN(c2ncnc3c2c(-c2ccccc2)cn3-c2ccccc2)CC1	21
Cc1nc2ccccn2c1C(=O)N/N=C/c1ccc([N+](=O)[O-])cc1	20
CCO[C@@H]1OC(C(=O)O)=C[C@H](c2ccc3c(c2)OCO3)[C@H]1CCCO	14
O=C(Nc1ccc(N2CCN(C(=O)c3ccccc3F)CC2)cc1)c1ncn[nH]1	28
COC(=O)c1c(O)cc(=O)n2c1CCCCC2	7
Cc1ccccc1C(=O)OCCCN=C1NS(=O)(=O)c2ccccc21	7
O=C(Cn1c2c(sc1=O)C1c3ccccc3OCC1CS2)Nc1ccc(Cl)cc1 (stereo not drawn)	14
Cc1noc(C)c1S(=O)(=O)Nc1ccccc1Oc1ccccc1	-2
O=C(NC(=S)Nc1ccc(N2CCOCC2)cc1)c1cccc(Cl)c1	19
Cc1ccc(CN2CCN(Cc3cnc(N4CCOCC4)s3)CC2CCO)cc1 (stereo not drawn)	56
Cc1c(C(=O)O)oc2c1/C(=N\O)CCC2	13
Cc1cccc(NC(NC(=O)c2ccccc2[N+](=O)[O-])C(Cl)(Cl)Cl)c1 (stereo not drawn)	9
CC(=O)Nc1cccc(/C(C)=N/NC(=O)c2c(-c3ccccc3Cl)noc2C)c1	-11
O=C(CCCn1c(=S)[nH]c2ccsc2c1=O)Nc1ccc2c(c1)OCO2	5
O=C(Cc1ccc(Cl)cc1Cl)Nc1cccc(S(=O)(=O)Nc2ccccc2F)c1	11
COc1ccc(-c2n[nH]c(=S)n2/N=C/C=C\c2ccccc2OC)cc1	-2
O=C(CCSc1ccc(Cl)cc1)NN=C1CCCCCC1	9
COCC(=O)N(c1ccccc1)C(C)C(=O)OC (stereo not drawn)	31
O=S(=O)(NCc1ccco1)c1ccccc1Br	19
O=C(Cn1nc(C(=O)O)c2ccccc2c1=O)Nc1ccc2c(c1)C(=O)c1ccccc1C2=O	-4
C#CCNC(=O)C1=C[C@H](c2csc3ccccc23)[C@@H](CCCO)[C@H](OCC)O1	20
CCN(CC)C(=O)COc1ccc(/C(C)=N/NC(=O)c2ccccc2Br)cc1	12
Cc1cccc2sc(NNC(=O)c3ccc(S(=O)(=O)N4CCCC(C)C4)cc3)nc12 (stereo not drawn)	1
C=CCN1C(c2cccc(C(F)(F)F)c2)=CS/C1=C(/C#N)c1nnc(N2CCOCC2)n1-c1ccccc1	21
CC(=O)c1ccc(NC(=O)Cn2c3ccccc3c3nc(=O)cc(C)n32)cc1	25
CCOC(=O)c1ccccc1NC(=O)c1ccc2nccnc2c1	9
NC(CO)c1cn([C@@H](CCC(=O)O)C(=O)N2CCNCC2)nn1 (stereo partly drawn)	18
COc1ccc(C(=O)NNC(=O)CNC(=O)C2CCCCC2)cc1	16
O=C(CSc1nnc(SCc2ccccc2)s1)NNC(=S)Nc1ccccc1	4
NC1=NC[C@H](c2ccccc2)N1CCc1cccc(F)c1	13
Cc1cc(C(=O)N2CCN(C(=O)c3ccco3)CC2)ccc1[N+](=O)[O-]	15
Cc1ccc(C(=O)N2CCN(S(=O)(=O)N3CCOCC3)CC2)cc1	4
Cc1ccc2c(c1C)OC(=O)CC2(C)C	16
COc1ccccc1OCC(=O)NCCCn1ccnc1	14
CCN(CC)C(=O)CN(c1cccc([N+](=O)[O-])c1)S(=O)(=O)c1ccccc1	28
N#Cc1c(Cn2cncn2)nc(=O)n(-c2ccccc2)c1N	-2
CC(/C=N/NC(=O)c1ccc(CN2c3cccc4cccc(c34)S2(=O)=O)cc1)c1ccccc1 (stereo not drawn)	23
Cn1c(=O)c2c(ncn2CCC(=O)N/N=C/c2ccncc2)n(C)c1=O	18
N#C/C(=C\c1ccc([N+](=O)[O-])cc1)C(=O)NCCCn1ccnc1	4
Cc1cc(C)n(C(=O)/C(C#N)=C/N(C)C)n1	17
CCOC(=O)c1cnc(-c2ccccc2)nc1C(F)(F)F	0
COC(=O)Cc1nc(Nc2ccccc2)sc1C	0
CCN(C(=O)Cn1nc(C(=O)O)c2ccccc2c1=O)C1CCCCC1	12
Cc1nonc1C(=O)N/N=C/c1ccncc1	14
CC(Sc1nnc(Cc2ccc3c(c2)OCO3)o1)C(N)=O (stereo not drawn)	14
Other records follow.
SMILES	Biofilm kill mix
COc1nccnc1NS(=O)(=O)c1ccc(NC(=S)NC(=O)/C=C/c2ccccc2)cc1	22
C/C(=N/OC(=O)c1cccc(C(F)(F)F)c1)c1cnccn1	-9
Cc1ccc2oc(=O)c3cc(C(=O)N4CCN(C)CC4)sc3c2c1	21
O=[N+]([O-])c1ccc(OCC(O)CN(CCO)CCO)cc1 (stereo not drawn)	6
COc1cc(C(=O)Nc2ccc(S(=O)(=O)N(C)c3ccccc3)cc2)cc(OC)c1OC	8
O=c1sc(/C=N/Nc2ccccc2)c(Cl)n1Cc1ccccc1	-1
CC1Cc2ccccc2N1CC(=O)Nc1cccc(S(N)(=O)=O)c1 (stereo not drawn)	8
Cn1nccc1C(=O)N1CCc2c([nH]c3ccccc23)C1c1ccc(F)cc1 (stereo not drawn)	3
CS(=O)(=O)N1CCN(C(=O)c2cc(-c3cccnc3)nc3ccc(Br)cc23)CC1	14
COC(=O)c1ccc(NC(=O)c2snnc2-c2ccccc2)cc1	12

4 entries from above in a different format:
C/C(=N/OC(=O)c1cccc(C(F)(F)F)c1)c1cnccn1
  Biofilm kill mix: -9

Cc1ccc2oc(=O)c3cc(C(=O)N4CCN(C)CC4)sc3c2c1
  Biofilm kill mix: 21

O=[N+]([O-])c1ccc(OCC(O)CN(CCO)CCO)cc1 (stereo not drawn)
  Biofilm kill mix: 6

COc1cc(C(=O)Nc2ccc(S(=O)(=O)N(C)c3ccccc3)cc2)cc(OC)c1OC
  Biofilm kill mix: 8

(list continues)
SMILES	Biofilm kill mix
COc1cc(/C=C/c2nc(N)nc(-c3ccccc3O)n2)cc(OC)c1OC	8
O=C(NCC1CCCO1)C(c1ccncc1)N(Cc1ccc(F)cc1)C(=O)CN1C(=O)c2ccccc2S1(=O)=O (stereo not drawn)	11
O=C(Nc1cccc(NC(=O)c2cccnc2Cl)c1)c1ccco1	-5
O=C(NCc1ccc(F)cc1)Nc1cccc(Cl)c1	20
O=C(CN1CCN(c2ccccc2)CC1)N/N=C/c1cccc(F)c1	12
CCOC(=O)Cc1cnc(N)s1	17
Cc1ccc(OCC(=O)Nc2ccc(CN3CCCCC3)cc2)c(C)c1	13
O=C(Nc1ccccc1F)Nc1ccccc1Br	18
O=C1CC(N(CCc2ccccc2)C(=S)Nc2ccccc2)C(=O)N1c1ccc(Br)cc1 (stereo not drawn)	16
O=C1N(Cc2cccc(Cl)c2)C[C@@H]2C[C@@H](c3cccc4cccnc34)N3CCC[C@@]123	-3
COc1ccccc1NC(=O)CSc1nnc(COc2ccccc2OC)n1C	5
Cc1ccc(N2C(=O)C3CCC(C)(C2=O)C3(C)C)cc1C (stereo not drawn)	22
CC(C)N(C(=O)/C=C/c1cccc([N+](=O)[O-])c1)C(C)C	13
S=C(NCc1ccc(Cl)cc1)NC1CCN(Cc2ccccc2)CC1	16
Cc1sc2ncn(Cc3ccccc3F)c(=O)c2c1C	8
Cc1cccc(CSCc2ccc(C(=O)NC3CCCC3)o2)c1	3
CC1=NCCN1CCNC(=O)Nc1ccc(C(C)(C)C)cc1	21
CC(=O)c1cc(CN2CCN(CCC(C)C)C(CCO)C2)cs1 (stereo not drawn)	14
O=C(Cc1ccccc1[N+](=O)[O-])NCc1ccco1	5
CSCc1nnc(NC(=O)c2ccc(S(=O)(=O)N(C)C)cc2)o1	11
CCOC(=O)c1ccc(NC(=O)C(C)Sc2nc(O)c(-c3ccccc3)c(=O)[nH]2)cc1 (stereo not drawn)	14
CCOc1ccc2nc(NC(=O)NC3CCCCC3)sc2c1	0
